High-throughput results (PubChem BioAssay)
Cruzain Triton: qHTS Assay for Promiscuous and Specific Inhibitors of Cruzain (with detergent); purified cruzain, Z-FR-AMC fluorescence, 0.01% Triton; Potency, µM, without a hit: max response, negative = inhibition, most hits filed as inhibitors; 200,000 tested, 0.43% active; active = well fitted curve in the direction sought with a large enough effect; inconclusive = small, poorly fitted or top-dose-only effect, or another doubt; inactive = no such curve, though single readings can be large; an effect the other way counts as inactive or inconclusive;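 note: plate controls were neutral wells for no effect and buffer without enzyme for full effect; nearly all actives have a fitted effect of over 40% in size; top concentration of the series not given in the record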
Target sequence (P25779 123-467 limits assumed): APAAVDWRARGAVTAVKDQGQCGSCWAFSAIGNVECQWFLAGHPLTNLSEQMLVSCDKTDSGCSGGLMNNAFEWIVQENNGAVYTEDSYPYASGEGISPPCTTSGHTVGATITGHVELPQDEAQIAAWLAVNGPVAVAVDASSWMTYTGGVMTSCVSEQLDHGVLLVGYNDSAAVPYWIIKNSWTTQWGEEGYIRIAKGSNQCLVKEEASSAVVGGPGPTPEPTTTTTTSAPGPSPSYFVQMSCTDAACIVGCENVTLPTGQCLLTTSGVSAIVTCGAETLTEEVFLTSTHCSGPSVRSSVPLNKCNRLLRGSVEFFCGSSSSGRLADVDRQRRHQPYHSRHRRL
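Enzyme 1.5 nM, Z-FR-AMC 2 uM, NaOAc 100 mM pH 5.5, DTT 5 mM, Triton X-100 0.01%; 15 min RT compound preincubation; kinetic ex360/em450, 60 s delta.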
Cruzain noTriton: qHTS Assay for Promiscuous and Specific Inhibitors of Cruzain (without detergent); Cruzipain (Trypanosoma cruzi), P25779; purified cruzain, Z-FR-AMC fluorescence, no detergent; Potency, µM, for inactives: max response, negative = inhibition, hits mostly inhibitors; 200,000 tested, 2.3% active; active = well fitted curve in the direction sought with a large enough effect; inconclusive = small, poorly fitted or top-dose-only effect, or another doubt; inactive = no such curve, though single readings can be large; an effect the other way counts as inactive or inconclusive;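 note: plate controls were enzyme without inhibitor for no effect and buffer without enzyme for full effect; nearly all actives have a fitted effect of over 40% in size; top concentration of the series not given in the record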
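Detergent-free condition (0.00005% Triton X-100) in acetate buffer pH 5.5 with DTT. 1.5 nM enzyme and compound were pre-mixed 15 min, then 2 uM Z-FR-AMC substrate added; reaction progress from fluorescence change between first and third reads (60 s).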
StopGo reporter: High Throughput Screening for Foot and Mouth Disease Virus Antivirals; human cells with a luciferase reporter of 2A StopGo recoding; control for the full effect not named in the record; Potency, µM (titrated, usually from 57.9 µM), inactives show top-dose signal change, negative = less light; 410,000 tested, 1.2% active; AID 1159524, 2015; active = well fitted falling curve with a large enough effect; inconclusive = small, poorly fitted or top-dose-only effect; inactive = no such curve, though single readings can be large or run the other way; tested in HEK293T cells; note: % is set by controls: 0 for no effect and ±100 for the full control effect; nearly all actives have a fitted effect of over 45% in size; luciferase light after 4 h
NS1 inh: qHTS Assay for Inhibitors of Influenza NS1 Protein Function; AID 2326, 2010; Potency, µM (top dose mostly 46.1 µM), for the others: top-dose activity, positive = more growth; 270,000 tested, 0.4% active; S. cerevisiae slowed by influenza A NS1, growth recovery by OD600; note: actives are rising curves; nearly all actives have a fitted effect of over 50% in size
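Growth recovery, yeast-based: influenza A NS1 expressed in S. cerevisiae causes slow growth, and suppressors are detected by OD600. The parent strain without NS1 is used as positive control.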
RE007 growth inh: qHTS Assay for Inhibitors of the HIV-1 protein Vpr; S. pombe RE007 Vpr strain, BacTiter-Glo ATP luminescence, 24 h; control for the full effect not named in the record; Potency, µM (highest dose often 92.2 µM), for the others: at the highest dose activity change, negative = less growth; 360,000 tested, 0.21% active; active = well fitted falling curve with a large enough effect; inconclusive = small, poorly fitted or top-dose-only effect; inactive = no such curve, though single readings can be large or run the other way;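 note: % is set by controls: 0 for no effect and ±100 for the full control effect; nearly all actives have a fitted effect of over 50% in size; the assay follows cell death caused by Vpr and the record does not say whether a fall means rescue or toxicity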
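Fission yeast strain RE007, carrying one chromosomally integrated HIV-1 vpr copy, was seeded at OD 0.01 in PMG+AL medium with 23 nL pinned compound. After 24 h at 30 °C and 99% humidity, viability was read by BacTiter-Glo luminescence.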
Marburg entry inh: qHTS for inhibitors of binding or entry into cells for Marburg Virus | Marburg virus pseudotyped entry inhibition, cell reporter; control for the full effect not named in the record; about a third of the inactives were read at about 46 µM | Potency, µM (titrated, usually from 37.8 µM), without a hit: at the highest dose activity change, negative = inhibition, most hits filed as inhibitors | 300,000 tested, 1.8% active | AID 540276, 2011; active = well fitted inhibition curve with a large enough effect; inconclusive = small, poorly fitted or top-dose-only effect, or effect the other way; inactive = flat fitted curve, though single readings scatter; tested in HEK293 cells; about a fifth of its hits are not listed in these tables; note: % is set by controls: 0 for no effect and ±100 for the full control effect; luciferase read-out
Lassa entry inh: qHTS for Inhibitors of binding or entry into cells for Lassa Virus; Lassa virus pseudotype entry inhibition, cell reporter; control for the full effect not named in the record; Potency, µM (titrated, usually from 37.9 µM), without a hit: top-dose activity change, negative = inhibition, usual class: inhibitors; 300,000 tested, 1.2% active; AID 540256, 2011; active means well fitted inhibition curve with a large enough effect; inconclusive means small, poorly fitted or top-dose-only effect, or effect the other way; inactive means flat fitted curve, though single readings scatter; tested in HEK293 cells; note: % is set by controls: 0 for no effect and ±100 for the full control effect; nearly all actives have a fitted effect of over 50% in size; luciferase read-out
SARS PLP yeast: qHTS of Yeast-based Assay for SARS-CoV PLP; Potency, µM (doses to about 32.9 µM), without a hit: at the top dose activity, positive = growth rescue; AID 485353, 2010; S. cerevisiae expressing SARS-CoV PLpro, growth rescue; control for the full effect not named in the record; 330,000 tested, 0.19% active; note: 0% is about no effect; nearly all actives have a fitted effect of over 55% in size; growth read by luminescence after 48 h
Active calls of the source: *; ? = inconclusive; . = not tested or not shown; & = joins results of further samples; [ ] = another dose, or the depositor's remark. Unless noted, calls come from the whole dose curve; as a rule, active means well fitted rising curve with a large enough effect; inconclusive means small, poorly fitted or top-dose-only effect; inactive means no such curve, though single readings can be large or run the other way. Potency is the fitted concentration of half-maximal effect.

molecule	Cruzain Triton	Cruzain noTriton	StopGo reporter	NS1 inh	RE007 growth inh	Marburg entry inh	Lassa entry inh	SARS PLP yeast
COc1nc(NCCO)nc(Nc2ccccc2F)n1	.	.	58%[activator]	.	5%	?	3%	-1%
CCN(CC)S(=O)(=O)c1ccc(Cl)c(C(=O)Nc2cccnc2)c1	.	.	0%	15%	6%	.	.	9%
COc1ccc(OC)c(C(=O)CCCC(=O)c2cc(OC)ccc2OC)c1	.	.	-2%	-48%	-2%	.	.	-3%
CCc1nn(CC(=O)N2CCN(CC)CC2)c(=O)c2cccn12	.	.	-6%	5%	3%	.	.	-1%
COc1cccc(N2CCN(CC(=O)NCc3cccs3)CC2)c1	0.8%	-3%	10%	-1%	4%	3%	?	3%
Cc1ccc(-c2nnc(NCc3ccccc3)c3ccccc23)cc1	-8.3%	-2%	?	-8%	-9%	17%	-10%	0%
Cn1c(=O)cc(N2CCN(C(=O)c3ccco3)CC2)[nH]c1=O	.	.	0%	10%	-5%	.	.	2%
O=C(Nc1nnc(-c2cccs2)s1)c1cccc(F)c1	.	.	48%[activator]	9%	-11%	?	?	-1%
O=C(Oc1ccc(-c2nnco2)cc1)c1ccc(F)c(S(=O)(=O)N2CCOCC2)c1	.	.	0%	.	5%	?	-2%	1%
Cc1ccc2nc(-c3cccc(Br)c3)cc(C(=O)NCC3CCCO3)c2c1 (stereo not drawn)	.	.	?	5%	-14%	.	.	-5%
Cc1c(/C=N/Nc2ccc(F)cc2)c(O)n(C)c(=O)c1C#N	.	.	7%	-1%	-6%	.	.	0%
CC(C)(C)c1ccc2c(c1)OC(C(=O)N/N=C\c1ccncc1)CO2 (stereo not drawn)	.	.	?	4%	-8%	-3%[14.2 µM]	1%	-1%
O=C1/C(=N\O)Cc2ccccc21	5.2%	-1%	.	-8%	0%	19%	20%	-2%
CCOc1ccc(CCNC(=O)Cc2nn[nH]n2)cc1OCC	0.4%	-1%	-21%	?	9%	-1%	1%	-2%
O=C(CN1C(=O)c2ccccc2C1=O)N1CCCCC1	2.8%	-7%	-16%	-5%	0%	17%	3%	-1%
Cc1ccc(NC(=O)CSc2nnc(C)c(=O)n2N)c(C)c1	-2.5%	0%	-18%	4%	21%	-2%	13%	17%
O=C(NCc1ccccc1)C1=C[C@@H](c2coc3ccccc3c2=O)C[C@@H](OCc2ccc(CO)cc2)O1	.	.	-1%	2%	1%	.	.	-3%
Cn1c2c(c3ccccc31)CCSC2=O	-3.8%	-10%	32%[activator]	-3%	-9%	24%	-14%	-6%
COC(=O)c1c(C)oc2cc(Br)c(OCC(=O)C(C)(C)C)cc12	-4.1%	-5%	2%	5%	-11%	-3%	?	6%
COCCn1c(C)cc(C(=O)CSc2nnc(C3CC3)n2C2CC2)c1C	.	.	-15%	.	2%	11%	15%	3%
Cc1ccc(C)c(N2CCN(S(=O)(=O)c3ccc4c(c3)C(C)(C)C(=O)N4C)CC2)c1	.	.	-20%	7%	8%	.	.	-12%
O=CC(Br)P(=O)(N1CCOCC1)N1CCOCC1 (stereo not drawn)	.	.	-5%	-2%	21%	.	.	0%
O=C(/C=C/c1cccs1)c1ccc(NC(=O)c2cccc(Br)c2)cc1	0.9%	16µM*	1%	6%	-8%	-7%	0%	-1%
Cc1ccc2nc(-c3ccc(NC(=O)CN4C(=O)c5ccccc5C4=O)cc3)sc2c1	-0.3%	-10%	29%	18%	.	?	?	7%
CC(C)NC(=O)COC(=O)c1ccc(Oc2ccccc2)cc1	14%	2%	-22%	-104%	-3%	3%	?	11%
Cc1ccc(N(C)S(=O)(=O)c2cccc(C(=O)OCC(=O)N3CCCC(C)C3)c2)cc1 (stereo not drawn)	.	.	?	.	-3%	-1%	-22%	0%
COc1ccccc1-c1cc2nc(C)c(CCC(=O)NC3CCCCC3)c(C)n2n1	-0.9%	?	13%	.	.	0%[46.1 µM]	0%[46.1 µM]	.
NC(=O)N/N=C\c1cccs1	.	.	-6%	9%	7%	.	.	-1%
Cc1ccc(NC(=O)c2oc3ccccc3c2NC(=O)Cc2cccs2)cc1	-8.4%	-11%	6%	.	.	?	-9%[46.1 µM]	.
CC(=O)Nc1ccc(Nc2cc(-c3ccccc3)nc3ncnn23)cc1	.	.	-22%	3%	13%	-10%[46.1 µM]	-19%[46.1 µM]	1%
Cc1ccc(NC(=O)Cn2nnc(C(=O)NCc3ccccc3)c2N)cc1C	6.8%	?	-4%	0%	4%	-3%	2%	4%
O=C(Nc1ccc(N2CCOCC2)cc1)c1nc2ccccc2s1	.	.	-9%	4%	-3%	?	-8%[46.1 µM]	-4%
COc1ccc(CNC(=O)c2cc(-c3cc(C)cc(C)c3O)n[nH]2)cc1	.	.	-17%	9%	5%	.	.	0%
N=C1/C(=C/c2ccc(OC(=O)c3ccco3)cc2)C(=O)N=C2SC=CN12	.	.	63%[activator]	10%	-21%	6%[46.1 µM]	-2%	0%
Cc1nnc(SCC(=O)Nc2nnc(SCc3cccc(Br)c3)s2)s1	-0.6%	?	-10%	2%	-12%	-2%	11%	-9%
CC(=CC(=O)c1ccccc1)c1ccccc1	.	.	42%[activator]	.	-6%	15%[46.1 µM]	8%[46.1 µM]	.
Cc1ccc(C)c(N(C)S(=O)(=O)c2ccc3c(c2)oc(=O)n3C)c1	.	.	-1%	5%	11%	10%[46.1 µM]	2%[46.1 µM]	0%
COCCNc1nnc(SCC(=O)c2ccc3c(c2)OCO3)s1	-9.7%	-25%	0%	3%	13%	2%	18%	3%
CC(C)OCC(O)CN1CCC(Cc2ccccc2)CC1 (stereo not drawn)	.	.	-7%	-4%	-14%	.	.	-3%
CCC(=NC(C)c1ccccc1)c1c(O)[nH]c(=O)[nH]c1=O (stereo not drawn)	.	.	-14%	-1%	4%	4%	0%	-3%
CCOCCn1ccc2c(OCC(=O)Nc3ccc(OC(F)(F)F)cc3)cccc2c1=O	-5.5%	?	-25%	.	.	.	-12%[46.1 µM]	.
CSCCC(NS(=O)(=O)/C=C/c1ccccc1)C(=O)N1CCC(C)CC1 (stereo not drawn)	-3.0%	10%	55%[activator]	-6%	-20%	2%&-3%	4%	3%
CC1CCCCC12NC(=O)N(CC(=O)N1CCc3ccccc3C1)C2=O (stereo not drawn)	.	.	-1%	.	2%	0%	13%	0%
CC1CC(=O)C2=C(C1)OC(N)=C(C#N)C2c1coc2ccccc2c1=O (stereo not drawn)	2.5%	-6%	-8%	2%	-23%	-5%	-2%	-3%
Cc1cc(Cl)ccc1OCc1n[nH]c(=S)n1C1CCCCC1	-12%	0%	?	22%	-18%	23µM*	?	-26%
Cc1ccc(S(=O)(=O)N(c2cc(Cl)c(O)c(Cl)c2)P(=O)(OC(C)C)OC(C)C)cc1	.	.	14%	-4%	-1%	.	.	-3%
Cc1cccc(-n2ccc(=O)c(C(=O)Nc3ccc(S(=O)(=O)N4CCOCC4)cc3)n2)c1	.	.	-25%	10%	9%	.	.	12%
COC(=O)C1=C(C)NC(=S)NC1c1ccc(-c2cccc(Cl)c2)o1 (stereo not drawn)	-7.3%	25µM*	-6%	-4%	-3%	?	-32%	-14%
Cn1cccc1/C=N/NC(=O)c1cccs1	.	.	60%[activator]	-14%	-19%	.	.	-7%
CCOC(=O)/C(=C\c1c[nH]c2ccccc12)NC(C)=O	-6.6%	-16%	-11%	3%	-7%	?	7%	23%

Later entries.
molecule	Cruzain Triton	Cruzain noTriton	StopGo reporter	NS1 inh	RE007 growth inh	Marburg entry inh	Lassa entry inh	SARS PLP yeast
CCOC(=O)c1[nH]cnc1C(=O)Nc1cccc(N)n1	-6.2%	-8%	-28%	0%	?	?	-6%	0%
O=C(CSc1nc2c(c(=O)n1-c1ccccc1)SCC2)N1CCN(c2ccccc2)CC1	-7.4%	2%	-21%	?	-17%	-22%&-22%	9%	3%
COc1ccc(Cl)cc1NC(=O)NC1CCCCC1	-1.2%	?	37%[activator]	-8%	10%	10%	1%	-12%
O=C(NN=C1c2ccccc2-c2ccccc21)c1cccc(Br)c1	-1.3%	?	-18%	3%	-2%	?	?	-33%
CC1CN(c2ccnc3cc(Cl)ccc23)CC(C)O1 (stereo not drawn)	.	.	-14%	2%	-12%	?	?	14%
CCOC(=O)N1CCN(C(=O)c2n[nH]c(=O)c3ccccc23)CC1	2.5%	-7%	-11%	0%	6%	15%	3%	-2%
Cc1ccc(S(=O)(=O)N2CC(O)CC2C(=O)OCc2nc3sc(C)c(C)c3c(=O)[nH]2)cc1 (stereo not drawn)	-1.6%	15%	-4%	19%	15%	12%	1%	?
CC(=O)NC1CC(C)(C)N(OC(C)=O)C(C)(C)C1	0.2%	3%	-3%	2%	5%	-5%	15%	4%
CC1CCN(S(=O)(=O)c2cccc(-c3csc(-c4cccnc4)n3)c2)CC1	-3.5%	-4%	-16%	-4%	13%	-20%	-11%	-10%
COc1ccccc1NC(=O)CSc1nnc(-c2cccc(Cl)c2)o1	-5.5%	-13%	-9%	.	.	?	9%[46.1 µM]	.
COc1ccccc1C(=O)Nc1ccc2nc(SCCOc3ccccc3C)sc2c1	-0.7%	13%	?	.	.	10%[46.1 µM]	-19%[46.1 µM]	.
COc1cccc(CC(=O)Nc2ccc3c(c2)CCC3)c1	.	.	11%	-5%	-5%	?	?	-2%
CC[C@@H](C)C(NC(=O)OC(C)(C)C)c1cn([C@@H](Cc2ccc(O)cc2)C(=O)N2CCN(C(=O)OC(C)(C)C)CC2)nn1 (stereo partly drawn)	.	.	-12%	-6%	7%	.	.	0%
